From PubChem BioAssay
gsp antag: gsp mutant antagonism | Potency, µM (highest dose often 76.9 µM), for inactives: at the highest dose activity change, negative = inhibition, actives largely listed as inhibitors | AID 624288 | gsp-mutant cells, cAMP HTRF, 30 min; control for the full effect not named in the record | actives 0.4% (n = 340,000); active = falling curve of any shape with a large fitted effect; inconclusive = falling curve, mostly with a smaller effect; inactive = flat or rising curve; cell line not stated here;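 also: intracellular cAMP measured with PDE inhibitor Ro 20-1724 present during compound exposure; potency is read from the fitted curve at half-maximal effect; % is scaled to controls: 0 for no effect and ±100 for the full control effect; nearly all actives have a fitted effect of over 65% in size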
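G418-selected cells were plated in DMEM/10% FBS for 16-24 h at 37C, then treated with compounds plus the PDE inhibitor […] (300 uM solution added) for 30 min at 37C. Intracellular cAMP was measured by HTRF after 30 min lysis at room temperature.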
PINK1 modulator: PINK1 expression modulation; AID 624263; PINK1 immunofluorescence, high-content cytometry, 24 h; Potency, µM (top dose mostly 76.6 µM), for inactives: at the top dose activation (PINK1 increase), most hits filed as activators; actives 0.2% (n = 410,000); active = well fitted activation curve with a large enough effect; inconclusive = small, poorly fitted or top-dose-only effect; inactive = flat fitted curve, though single readings scatter; cell line not stated here;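 also: potency is read from the fitted curve at half-maximal effect; % of control where 0% means no effect; nearly all actives have a fitted effect of over 65% in size; a mitochondrial uncoupler was the plate control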
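Decision-based qHTS: stable cells, 24 h exposure to five compound concentrations, CCCP as control. Fixed cells stained for PINK1 plus nuclear, mitochondrial and cell markers, cytometer read.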
D2 agonist: human D2 receptor agonism in beta-arrestin assay; AID 624465; DiscoveRx PathHunter D2 beta-arrestin, luminescence, 90 min; 100% = 57 uM dopamine signal; activation, % (concentration not given with the values); actives 0.084% (n = 360,000); P14416; in the data active = activation above about 40%; inconclusive = about 15% to 40%; inactive = below about 15%; also: compound concentration not given in the record; the text of the record calls up to 30% inactive
Target sequence (P14416 whole entry, looked up): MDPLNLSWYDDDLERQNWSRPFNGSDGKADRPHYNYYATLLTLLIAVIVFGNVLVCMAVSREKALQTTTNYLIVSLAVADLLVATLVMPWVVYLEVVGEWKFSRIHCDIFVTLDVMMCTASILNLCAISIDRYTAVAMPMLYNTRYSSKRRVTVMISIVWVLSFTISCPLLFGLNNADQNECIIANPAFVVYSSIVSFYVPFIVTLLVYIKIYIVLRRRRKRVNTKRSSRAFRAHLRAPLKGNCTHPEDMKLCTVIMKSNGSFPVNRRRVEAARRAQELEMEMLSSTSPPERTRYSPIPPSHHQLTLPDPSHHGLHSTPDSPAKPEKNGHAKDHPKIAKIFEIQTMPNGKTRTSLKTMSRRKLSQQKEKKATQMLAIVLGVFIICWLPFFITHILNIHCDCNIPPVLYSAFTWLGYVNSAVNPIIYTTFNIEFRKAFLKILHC
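DiscoveRx PathHunter D2 beta-arrestin cells (2,100/well) attached overnight, then compound-stimulated 90 min at 37 C in HBSS/10 mM HEPES/0.1% Tween-20 buffer; beta-galactosidase complementation read by luminescence after 1 h at ambient temperature. Dopamine 57 uM final (EC100) as control.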
Menin MLL FP FL: displaces fluorescein MLL peptide from human menin | Fluorescence polarization, fluorescein-MLL peptide displacement from menin | FP activity change, % at 61.4 µM | AID 1766 | 290,000 tested, under 10 active; inconclusive = falling polarisation curve, or a change in total fluorescence; inactive = total fluorescence flat and polarisation flat or rising; no compound was filed as active; the % refers to the polarisation; negative = inhibition;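 also: % of control where 0% means no effect; inhibitors lower the polarisation; unlabelled MLL peptide was the positive control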
gsp ag: gsp mutant agonism; Potency, µM (highest dose often 76.9 µM), for inactives: top-dose activation (cAMP increase), most hits filed as activators; gsp mutant cells, cAMP HTRF, 30 min; control for the full effect not named in the record; actives 0.13% (n = 340,000); AID 624287; active = well fitted activation curve with a large enough effect; inconclusive = small, poorly fitted or top-dose-only effect, or another doubt; inactive = no such curve, though single readings can be large or run the other way; cell line not stated here;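 also: phosphodiesterase inhibitor Ro 20-1724 added with compounds to block cAMP breakdown; potency is read from the fitted curve at half-maximal effect; nearly all actives have a fitted effect of over 60% in size; about a fifth of the inactives were tested at one dose only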
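Cells stably selected in G418 were plated at 2000/well, grown 16-24 hr, then given compounds in DMSO with the PDE inhibitor […] (300 uM solution added) for 30 min at 37C; cAMP was read by HTRF.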
ClpP mod: qHTS Assay for Activators of ClpP; purified B. subtilis ClpP, FRET peptide cleavage, 20 min; ATP-dependent Clp protease proteolytic subunit (Bacillus subtilis (strain 168)), P80244; AID 651965, 2013; Potency, µM (doses to about 57.5 µM), without a hit: at the top dose activity change, negative = active; actives 1.9% (n = 340,000); active = well fitted falling curve with a large enough effect; inconclusive = small, poorly fitted or top-dose-only effect; inactive = no such curve, though single readings can be large or run the other way; also: potency is read from the fitted curve at half-maximal effect; the source files actives as falling curves though it sought activators and does not explain the sign; nearly all actives have a fitted effect of over 65% in size; many hits overshoot -100%
Target sequence (P80244 whole entry, looked up): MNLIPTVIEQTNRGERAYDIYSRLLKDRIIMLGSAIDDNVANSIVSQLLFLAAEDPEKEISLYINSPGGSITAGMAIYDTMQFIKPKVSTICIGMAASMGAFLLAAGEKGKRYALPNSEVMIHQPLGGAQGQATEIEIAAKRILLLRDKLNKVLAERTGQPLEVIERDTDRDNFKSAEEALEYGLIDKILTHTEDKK
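Purified B. subtilis ClpP, 10 microg/mL final in Tris/HCl pH8 with KCl, BSA, glycerol and Tween-20, cleaved an Abz/nitrotyrosine-quenched decapeptide. Fluorescence (ex 320, em 430) was read at 0 and 20 min at room temperature. Delta was normalized to 5.8 microM ADEP and DMSO/no-enzyme controls.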
Sfp inh: Sfp phosphopantetheinyl transferase inhibition; Q9F4F7; Biochemical Sfp PPTase activity, qHTS; Potency, µM, without a hit: max response, negative = inhibition, hits mostly inhibitors; actives 3.5% (n = 310,000); active = well fitted inhibition curve with a large enough effect; inconclusive = small, poorly fitted or top-dose-only effect, or another doubt; inactive = no such curve, though single readings can be large or run the other way;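 also: the enzyme is Sfp with the accession as filed and its product quenches rhodamine fluorescence; potency is read from the fitted curve at half-maximal effect; 0% = enzyme reaction without inhibitor and -100% = no enzyme wells; top concentration of the series not given in the record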
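Sfp 15 nM + cpd, 15 min RT; start w/ rhodamine-CoA 5 uM, BHQ-2-YbbR 12.5 uM (final); 50 mM Hepes pH 7.6, 10 mM MgCl2, 0.01% NP-40, 0.01% BSA; read 525/598 nm at 0 and 30 min.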
The depositor's hits bear a star; ? = inconclusive; · = no result given; & = joins results of further samples; [ ] = remark or other dose.

SMILES	gsp antag	PINK1 modulator	D2 agonist	Menin MLL FP FL	gsp ag	ClpP mod	Sfp inh
Cc1cc(C)n2nc(SCC(=O)NC3CCCC(C)C3C)nc2n1 (configuration not stated)	-1%	-0.6%	6.9	3.6	0%	-11%	17%
COc1ccc(C(=O)C2CCCN(Cc3cnc(N4CCCC4)s3)C2)cc1OC (configuration not stated)	-3%	0.3%	-3.7	4.1	-83%[inhibitor]	-0.8%	-5%
CC(=O)C1=C(O)C(=O)N(c2ccc(S(N)(=O)=O)cc2)C1c1ccccc1F (configuration not stated)	10%	-2.1%	-1.3	2.8	-1%	25µM*	-1%
CN(C)C(=O)c1c2c(nc3ccccc13)-c1ccccc1CC2	5%	-0.3%	-1.3	4.8	-22%	?	13%
C=CCn1c(COc2ccc(F)cc2)nnc1SCC(=O)NC1CCCC1	-15%	-6.1%	-0.3	·	4%	0.7%	·
CCCN(CCC)c1nc(Cl)nc(NCCN2CCOCC2)n1	1%	-1.2%	-1.4	1.4	-43%[inhibitor]	-0.2%	7%
O=[N+]([O-])c1ccc(/C=N/n2c(-c3cccnc3)n[nH]c2=S)cc1	-5%	-0.1%	6.6	-2.7	?	-2.7%	?
O=C(CN1CCOCC1)Nc1ccccc1Cl	6%	21%[38.3 µM]	0.8	0.8	-54%[inhibitor]	0.6%	14%
COCCn1c(=O)c(C)nc2cnc(N(C)C)nc21	·	-0.4%	·	-2.4	·	·	11%
CCCCOc1ccc(C(=O)N2CCCC2)cc1	-6%	7.0%[38.3 µM]	-2.1	1.9	?	-2.3%	7%
Brc1c(CSc2nc3ccccc3o2)nc2ncccn12	29%	1.6%	0.7	-3.8	?	25µM*	-18%
Cc1cccc(NC(=O)c2ccc(S(=O)(=O)N3CC(C)OC(C)C3)cc2)n1 (configuration not stated)	-4%	0.1%	-1.8	·	-10%	-4.0%	·
O=C(NC(=S)NC1CCCC1)c1ccccc1Br	?	0.4%	-1.5	0.7	-3%	-5.3%	21%
COc1ccc(-n2cnc3cc(NS(=O)(=O)c4ccccc4)ccc32)cc1	-18%	-5.9%[38.3 µM]	3.4	-1.0	10%	-2.5%	-12%
Cc1nc2cnc(N3CCOCC3)nc2n(C)c1=O	·	0.1%	·	1.3	·	·	22%
CC1(C(=O)NS(=O)(=O)c2ccc(C#N)cc2)CCN1C(=O)Cc1ccsc1 (configuration not stated)	·	1.1%	-6.9	·	·	-2.3%	·
COc1ccc(C2CC(c3cccc(C)c3)n3ncnc3N2)cc1 (configuration not stated)	-5%	1.5%	2.7	1.0	-30%[inhibitor]	-4.8%	6%
Cc1ccccc1CN(C)CCc1ccccn1	10%	0.2%	-7.4	-1.3	17%	-3.6%	?
CC1CCN(S(=O)(=O)N2CCC(C(=O)NC3CCCC3)CC2)CC1	3%	2.5%	-2.7	-0.7	?	4.8%	5%
CCc1nc2ccc(C(=O)NCc3ccc4c(c3)OCO4)cn2c1N(C)Cc1cccs1	·	0.6%	4.1	·	·	-3.4%	·
Cc1ccc(S(=O)(=O)NC(=O)Nc2ccc(OC(F)F)cc2)cc1	12%	1.1%	-4.5	0.0	9%	0.7%	-2%
O=C(c1cc(=O)[nH]c2ccccc12)N1CCN(Cc2ccc3c(c2)OCO3)CC1	2%	0.5%	-2.7	·	-24%	-22%	·
CC(C)(C)OC(=O)N1CCC(C(=O)N2CCCCCC2)CC1	7%	1.3%	1.3	-0.2	1%	0.9%	20%
O=C(Nc1ccc(N2CCCCC2)c(C(=O)O)c1)c1ccco1	12%	-0.4%	-3.5	3.0	-1%	-0.9%	5%
Cc1cccc(N2CCN(C(=O)NC3CCCCC3)CC2C)c1 (configuration not stated)	2%	-2.3%	8.6	4.5	?	0.4%	5%

The results go on:
SMILES	gsp antag	PINK1 modulator	D2 agonist	Menin MLL FP FL	gsp ag	ClpP mod	Sfp inh
Cn1ncc(Br)c1NC(=O)Nc1ccc(OC(F)(F)F)cc1	6%	4.3%	-0.2	1.0	2%	·	13%
CCc1n[nH]c(=S)n1/N=C/c1ccc(NC(C)=O)cc1	-20%	-0.4%	-5.4	3.4	12%[15.4 µM]	-1.5%	-13%
CN(C)S(=O)(=O)c1cccc(NC(=O)COc2ccccc2C(=O)NCc2ccccc2)c1	-27%	-1.2%	1.7	·	19%	-13%	·
Nc1scc(-c2ccncc2)c1Cl	-9%	1.2%	-1.8	3.6	0%	-1.5%	-12%
O=C(O)c1ccc(NC(=O)c2cn(-c3ccccc3)nc2-c2ccccc2)cc1	?	-0.1%	-1.8	-0.6	-252%[inhibitor]	·	7%
CSc1ccc(CCNC(=O)c2ccc(CS(=O)Cc3ccc(Cl)cc3)o2)cc1 (configuration not stated)	?	-0.5%&1.3%	1.4	·	6%	0.2%&-1.1%	3%
COC(CNC(=O)c1cc(-c2ccncc2)nc2ccc(S(=O)(=O)N3CCOCC3)cc12)OC	-8%	0.7%	2.8	4.7	-22%	-0.4%	8%
COc1ccc(NC(=O)Nc2nc3ccccc3s2)cc1	-8%	5.7%	4.1	-6.8	-28%	·	0%
CC1=C(C(=O)N(C)C)CC(CC(=O)NCCc2ccccn2)C(=O)N1Cc1ccccc1 (configuration not stated)	·	0.1%	-3.7	·	14%	-0.4%	·
COc1ccc(/C=N/NC(=O)c2c(C)nnn2-c2nonc2N)cc1OC	·	7.8%	-1.4	-2.8	-1%[15.4 µM]	·	20%
O=C(COC(=O)C1CC1)Nc1ccc(S(=O)(=O)N2CCOCC2)cc1	-5%	1.0%	-2.0	·	-7%[15.4 µM]	0.6%	·
Fc1ccc(Br)cc1C1C=C(c2ccc(Br)s2)Nc2ncnn21 (configuration not stated)	?	18%	-3.9	?	-6%	-11%	56µM*
Cn1c(=O)c2c(ncn2CC(=O)Nc2cccc(S(=O)(=O)Nc3ccccc3F)c2)n(C)c1=O	4%	0.7%	2.0	-6.2	-18%[15.4 µM]	·	56µM*
O=C(NCCCn1ccnc1)/C(=C\c1ccc(Br)cc1)NC(=O)c1ccccc1	6%	1.4%	5.2	·	10%	0.6%	11%
C=CCC[C@H](Cc1ccc(F)cc1)C(=O)OC[C@H](C)NC(=O)[C@@H](CC=C)CC(=O)N[C@H](CO)Cc1ccccc1	-16%	2.3%	-1.3	·	-6%	0.7%	·
CCn1c(=O)c2sccc2n2c(CCCC(=O)NC3CCN(Cc4ccccc4)CC3)nnc12	8%	0.2%	2.6	·	?	-11%	18%
Nc1ccc(C=C2C=Cc3ccccc32)cc1	-12%	10%	-4.3	·	12%[15.4 µM]	0.9%	·
CC(C)C(NC(=O)c1ccccc1F)C(=O)NCCc1ccccn1 (configuration not stated)	12%	-1.1%	1.5	1.8	1%	·	-30%
O=C(NCCc1ccccc1)C1=CCN(S(=O)(=O)c2ccccc2)CC1	3%	-0.7%	1.3	·	-9%	-3.6%	16%
CCOC(=O)c1ccccc1OC(=O)CS(=O)c1ccccc1[N+](=O)[O-] (configuration not stated)	-6%	0.4%	1.1	-4.9	3%	·	1%
O=C1C=C(c2ccc3[nH]ccc3c2)C[C@@H](c2ccc(F)cc2)C1	?	?	-0.8	·	·	1.2%	·
CCc1cc2cc(C)c(C)cc2nc1SCC(=O)NNC(=O)c1ccco1	5%	·	-1.4	-0.5	-52%[inhibitor]	-6.2%	8%
CCCCN(C(=O)c1ccc2c(c1)OCCO2)c1c(N)n(CCCC)c(=O)[nH]c1=O	10%	3.0%	13	·	8%	-3.2%	·
Cc1nn(Cc2ccccc2Cl)c(C)c1NC(=O)Cn1nc([N+](=O)[O-])c(Cl)c1C	3%	1.1%	0.0	-0.2	-17%	-0.2%	5%
COc1ccc(C(=O)NNC(=O)C(=O)NC2CCCCC2)cc1	1%	-0.3%	-3.1	·	0%[15.4 µM]	·	21%

Full records, looked up by structure.
Nc1ccc(C=C2C=Cc3ccccc32)cc1 in the list: gsp antag = -12%; PINK1 modulator = 10%; D2 agonist = -4.3; Menin MLL FP FL = ·; gsp ag = 12%[15.4 µM]; ClpP mod = 0.9%; Sfp inh = ·
CN(C)S(=O)(=O)c1cccc(NC(=O)COc2ccccc2C(=O)NCc2ccccc2)c1 in the list: gsp antag = -27%; PINK1 modulator = -1.2%; D2 agonist = 1.7; Menin MLL FP FL = ·; gsp ag = 19%; ClpP mod = -13%; Sfp inh = ·

Other results
SMILES	gsp antag	PINK1 modulator	D2 agonist	Menin MLL FP FL	gsp ag	ClpP mod	Sfp inh
CNC(=O)C(=O)Nc1c(C)cc(C)cc1C	10%	0.4%	-2.2	1.8	?	1.0%	8%
CC(C)(C)OC(=O)NCCCCCC(=O)N/N=C/c1coc2ccccc2c1=O	2%	2.3%	-2.6	4.3	4%	55%	36%[activator]
CN(C)CCCN(C(=O)c1ccc(S(=O)(=O)N2CCc3ccccc32)cc1)c1nc2c(Cl)cccc2s1	-9%	-0.9%	-9.2	·	-26%	-2.6%	?
CC(=O)Nc1ccc(S(=O)(=O)NNC(=O)c2ccc(C)cc2)cc1	16%	-1.4%	2.7	2.9	-25%	-1.2%	4%
CC(C)[C@H](NC(=O)N1CCn2c1nc1ccccc12)C(=O)NCCc1ccccc1	-1%	0.2%	-1.4	·	1%	·	3%
c1csc(-c2csc3nc(CN4CCOCC4)nc(NCc4ccc5c(c4)OCO5)c23)c1	-8%	-0.4%	-0.9	4.1	-47%[inhibitor]	0.3%	-15%
Cc1cc2sc3nc(=O)n(-c4ccccc4)c(=O)n3c2cc1C	-2%	4.1%	0.3	-2.6	2%[15.4 µM]	-4.9%	13%
CCN1CCN(CC(O)COc2ccc(C(C)=O)cc2)CC1 (configuration not stated)	-5%	0.4%	-1.4	-0.8	17%	-0.1%	10%
Cc1c(C(=O)N2CCCCC2)nn(-c2ccc(Cl)cc2)c(=O)c1C#N	5%	1.0%	2.0	-1.7	-24%	-3.1%	16%
